RanGTP-Impb inh: inhibitors of RanGTP-importin-beta interaction, primary screen, biochemical, FRET, CFP-Ran, YFP-importin-beta, homogeneous; Ran GTPase (GTP-bound) - importin-beta complex; cell-free CFP-Ran/YFP-importin-beta FRET ratio; inhibition, % (test concentration not listed); 300,000 compounds, 1.1% hits;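 active = most replicates above 15%; inconclusive = exactly half above 15%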;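 note: 0% = DMSO wells and 100% = Ran loaded with GDP instead of GTP; wells of about 40 µL received 100 nL stock; the first replicate is given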
Calb FLC: C. albicans growth inhibition with fluconazole, primary screen, CaCi-2 strain, Alamar Blue fluorescence. AID 1979, 2009. 300,000 compounds, 0.57% hits. C. albicans CaCi-2 (fluconazole-resistant clinical isolate) + fluconazole, 48 h. growth inhibition, % (concentration not given with the values);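 active = most replicates above 75%; inconclusive = exactly half above 75%; inactive = most below 75%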;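 note: all wells also contain fluconazole at 8 µg/ml as a sub-toxic cotreatment; 0% = median of DMSO wells and 100% = median of geldanamycin control wells; wells of about 8 µL received 7.5 nL stock; the first replicate is given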
Bfl-1 A1 inh: caspase 3/7 activation in MEF A1-2A-BIM cells, primary screen, A1 inhibitor project, cell-based, luminescence, HTS; 330,000 compounds, 0.066% hits; caspase activation, % (test concentration not listed); AID 2462, 2010; Caspase-Glo 3/7 luminescence, 3 h; percent of clofoctol response, vehicle zero;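 active = over half of replicate activation scores above 10%, or exactly half above 10 with the replicate mean above 10; inconclusive = replicate mean below 10 yet half the replicates above 10; inactive = over half of replicates below 10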;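 note: wells of about 30 µL received 50 nL stock; many hits fall short of the cut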
Vif A3G: inhibitors of Vif binding to APOBEC3G peptide, primary screen, biochemical, TR-FRET, GST-Vif 1-94, biotin-A3G peptide, dose response retest (AID 1117319); Virion infectivity factor (Human immunodeficiency virus type 1 group M subtype B (isolate …; TR-FRET GST-Vif / biotin-A3G peptide binding; higher % means a stronger effect; test concentration not given here; strong numbers were not always called active; inhibition, %, or IC50 in µM where a hit was titrated; 260,000 compounds, 0.57% hits;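 active = above the screen mean plus three standard deviations and confirmed in dose response; inconclusive = results disagree or hit not tested in dose response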;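 note: Vif residues 1-94 fused to GST binding biotinylated APOBEC3G peptide 110-148; 0% = full assay without inhibitor and 100% = GST in place of GST-Vif; retest series ran down from 100 µM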
T cruzi inh: inhibitors of intracellular T. cruzi growth, primary screen, luminescence, NIH3T3 host cells | T. cruzi beta-gal in NIH3T3, 90 h | 300,000 compounds, 1.4% hits | inhibition, % (no concentration beside the values);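 active = mean inhibition across valid replicates above about 55%, limit read from the data; inconclusive = mean below that limit but half or more replicates reach it; inactive = mean below it, under half of replicates reach it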;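 note: signal also drops with host cell toxicity which is not excluded here; 0% = plate median of DMSO wells and 100% = zero luminescence signal; higher percent means less beta-gal luminescence so fewer parasites; stock transfer was 50 nL into about 50 µL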
Ecoli rRNA inh: reduced GFP signal of wild-type E. coli, primary screen, bacterial rRNA inhibitor project, GFP/RFP fluorescence, OD600, single point | E. coli WT GFP vs humanized-ribosome RFP mutants, 24 h; active compounds read low; DMSO median 0, no signal -100 | GFP signal change (wild-type ribosome), % (concentration not given with the values) | 350,000 compounds, 1.6% hits;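 active = significant combined selectivity score with lowered wild-type GFP, culture density cut under 30%, mutant RFP and density less affected; inactive = any of these conditions unmet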; note: one replicate is shown; some compounds called inactive have numbers as strong as hits
Beta cell apopt: inhibitors of cytokine-induced beta cell apoptosis, primary screen, luminescence | INS-1E cytokine-induced death, ATP luminescence, 48 h; percent of positive-control rescue, neutral wells zero | protection from apoptosis, % (concentration not given with the values) | 300,000 compounds, 0.8% hits | AID 435005, 2010;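 active = all replicates at 75% or more, or half of them and the mean; inconclusive = half reach 75% but not the mean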;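 note: 0% = cytokine-treated negative control wells and 100% = positive control rescue; higher means more ATP so stronger rescue from cytokine killing; wells of about 40 µL received 100 nL stock; the first replicate is given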
MLL AF4-AF9 inh: inhibitors of AF4 peptide binding to AF9, primary screen, biochemical, AlphaScreen, biotin-AF4 peptide, FLAG-AF9, single point; Protein AF-9 (Homo sapiens), P42568; inhibition, % at 10 µM; 350,000 compounds, 0.47% hits; AID 651704, 2012;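 active = every replicate reaching a set inhibition limit, whatever the replicate mean, cut at about 25% in these data; inconclusive = mean inhibition reaches that limit but some replicates miss it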;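 note: 0% = plate neutral control median and 100% = total signal loss; the record names both 10 and 1 µM as test concentration; the first replicate is given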
Target sequence (P42568 whole entry, looked up): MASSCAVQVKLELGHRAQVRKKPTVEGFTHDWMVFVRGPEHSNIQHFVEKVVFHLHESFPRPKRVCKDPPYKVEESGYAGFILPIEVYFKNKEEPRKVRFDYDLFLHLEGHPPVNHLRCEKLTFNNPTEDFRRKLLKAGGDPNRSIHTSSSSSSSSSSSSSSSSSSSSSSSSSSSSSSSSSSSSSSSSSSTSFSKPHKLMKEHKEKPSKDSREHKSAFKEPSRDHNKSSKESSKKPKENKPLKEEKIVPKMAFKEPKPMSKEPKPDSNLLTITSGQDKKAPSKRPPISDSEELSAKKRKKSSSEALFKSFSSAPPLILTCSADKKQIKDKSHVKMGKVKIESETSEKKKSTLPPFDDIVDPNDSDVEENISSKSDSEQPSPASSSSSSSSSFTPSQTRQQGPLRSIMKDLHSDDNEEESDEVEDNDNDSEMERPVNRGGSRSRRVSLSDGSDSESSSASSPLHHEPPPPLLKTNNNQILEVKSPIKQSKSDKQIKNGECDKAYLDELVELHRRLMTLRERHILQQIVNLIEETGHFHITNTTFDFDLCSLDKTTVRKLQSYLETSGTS
Ecoli rRNA inh OD600: second read-out of Ecoli rRNA inh, no call of its own (marks repeat the call); OD600 change, %; measured here: OD600 growth;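 optical density of the mix in the first replicate; 0 = DMSO median and -100 = no signal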
Ecoli rRNA inh RFP: also measured in Ecoli rRNA inh; calls as there; RFP signal change, %; measured here: RFP humanized mutant strains;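 first replicate; 0 = DMSO median and -100 = no signal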
* marks the source's active call; other numbers are inactive results; ? = inconclusive; . = no result given. These rows are one share of the data, so the mix of outcomes need not match the whole.

Preview, five compounds:
SMILES	RanGTP-Impb inh	Calb FLC	Bfl-1 A1 inh	Vif A3G	T cruzi inh	Ecoli rRNA inh	Ecoli rRNA inh OD600	Ecoli rRNA inh RFP	Beta cell apopt	MLL AF4-AF9 inh
CCCCC(=Nc1ccccc1OC)C1=C(O)CC(c2ccccc2)CC1=O (stereo unspecified)	2.0	-1	0.1	-2%	5	-12	-13	5.7	4	-31
S=c1[nH]ncn1/N=C/c1ccc(Br)cc1	0.1	0	0.5	1%	-13	.	.	.	-2	.
O=C(c1ccc2nc(N3CCOCC3)sc2c1)N1CCC(Cc2ccccc2)CC1	-1.7	2	-0.5	5%	6	-27	-74	-19	-4	-3.3
Cc1ccccc1CSCC(=O)N/N=C/c1cccs1	-0.3	4	0.1	-1%	-21	.	.	.	-1	.
CC(C)c1ccccc1NC(=O)COC(=O)c1cc([N+](=O)[O-])ccc1N1CCOCC1	?	0	0.8	-7%	-2	-13	-8	17	4	16

The list itself, from the first entry:
SMILES	RanGTP-Impb inh	Calb FLC	Bfl-1 A1 inh	Vif A3G	T cruzi inh	Ecoli rRNA inh	Ecoli rRNA inh OD600	Ecoli rRNA inh RFP	Beta cell apopt	MLL AF4-AF9 inh
CCCCC(=Nc1ccccc1OC)C1=C(O)CC(c2ccccc2)CC1=O (stereo unspecified)	2.0	-1	0.1	-2%	5	-12	-13	5.7	4	-31
S=c1[nH]ncn1/N=C/c1ccc(Br)cc1	0.1	0	0.5	1%	-13	.	.	.	-2	.
O=C(c1ccc2nc(N3CCOCC3)sc2c1)N1CCC(Cc2ccccc2)CC1	-1.7	2	-0.5	5%	6	-27	-74	-19	-4	-3.3
Cc1ccccc1CSCC(=O)N/N=C/c1cccs1	-0.3	4	0.1	-1%	-21	.	.	.	-1	.
CC(C)c1ccccc1NC(=O)COC(=O)c1cc([N+](=O)[O-])ccc1N1CCOCC1	?	0	0.8	-7%	-2	-13	-8	17	4	16
Cc1nc(N2CCN(C)CC2)c2c(C)c(C(=O)Nc3ccc(F)cc3)sc2n1	2.4	-4	1.4	2%	0	.	.	.	4	.
N#Cc1ccccc1S(=O)(=O)N1CCN(S(=O)(=O)c2ccc(Br)c(C(=O)O)c2)CC1	2.7	-9	0.1	-1%	-6	6	19	1.7	-15	2.7
CN(C)S(=O)(=O)n1cc(/C=C(\NC(=O)c2ccccc2F)C(=O)N2CCOCC2)c2ccccc21	-1.2	?	-0.4	-2%	-7	22	19	-0.2	7	-2.9
COc1cc(C)ccc1OCCOc1c(C)cccc1Cl	-3.3	3	0.5	6%	6	.	.	.	-8	.
Cc1nc(CN2CCCCC2)cc(=O)[nH]1	-2.5	-8	0.1	24%	-11	14	10	1.1	-4	1.7
CN(C)CCN1C(=O)c2oc3ccc(Cl)cc3c(=O)c2C1c1cccc(Br)c1 (stereo unspecified)	-0.3	13	0.3	6%	6	.	.	.	-3	.
COc1ccccc1CNC(=O)C(=O)NCC1OCCN1C(=O)c1cccs1 (stereo unspecified)	1.2	-17	-0.7	.	17	8	15	-4.5	-4	-2.9
COc1ccc(S(=O)(=O)N2CCCCC2)cc1NC(=O)C1COc2ccccc2O1 (stereo unspecified)	1.3	-3	1.3	-9%	4	-8	-9	-4.4	.	9.9
Cc1ccc(-n2c(SCC(=O)NNC(=S)Nc3ccccc3)nc3ccccc3c2=O)cc1	5.3	-5	-0.1	.	-7	.	.	.	0	.
CCOc1ccccc1NC(=O)CN1CCN(C(=O)C2CCCO2)CC1 (stereo unspecified)	-4.1	-4	0.3	.	-9	4	-2	-3.5	-3	-3.0
COc1ccc(Cl)cc1NC(=O)CN(C)C(C)C(=O)NCC1CCCCC1 (stereo unspecified)	-2.5	-2	-0.2	25%	9	.	.	.	7	.
NC(=O)c1cc([N+](=O)[O-])ccc1NCc1cccc([N+](=O)[O-])c1	.	.	0.5	.	.	20	25	-6.3	1	0.4
C/C(=N\NC(=O)C(N)=O)c1ccc(O)cc1O	0.2	-5	0.3	.	7	22	6	4.9	-1	-2.3
Cc1ccc(Cl)cc1N1CCN(C(=O)CSc2ccsc2[N+](=O)[O-])CC1	-0.2	-45	0.5	.	44	11	0	4.4	-9	-5.2
Cn1cc(CN2CCN(Cc3ccc4c(c3)OCO4)CC2)c(-c2ccccc2F)n1	-1.7	-14	-0.2	21%	7	7	2	0.6	0	3.2
COc1ccccc1N1CCN(C(=O)CCC(=O)N2CCN(c3ccc(F)cc3)CC2)CC1	3.6	3	0.9	.	6	-15	-16	-8.2	3	2.0
O=C(COC(=O)Cc1ccc(S(=O)(=O)N2CCOCC2)s1)Nc1ccc([N+](=O)[O-])cc1	.	.	1.1	10%	.	6	10	28	-8	-0.9
COc1cc(C)ccc1OCc1cc(C(=O)N2C[C@H]3CC[C@H]2C3)no1	2.6	0	0.1	.	5	-2	0	2.9	-3	1.0
CCn1c(SCC(=O)NNC(=O)c2ccc(OC)cc2)nnc1C1CC1	5.6	0	0.8	.	0	5	11	0.9	3	-1.5
Cc1ccc(C(=O)COC(=O)CNC(=O)c2cccs2)cc1C	-5.7	-8	0.1	4%	-15	-13	-15	1.4	-10	0.5
COC(=O)c1sc(NC(=S)NC(=O)c2cccc(C)c2)nc1C	0.2	12	1.0	18%	4	23	10	1.4	.	0.6
CCn1ccnc1CNC(=O)c1cc(COc2ccc(F)cc2F)on1	-0.2	29	0.3	-1%	-1	-4	-5	-1.3	2	5.1
CCOc1c(O)ccc(C2NC(=O)NC(C)=C2C(=O)OC)c1[N+](=O)[O-] (stereo unspecified)	5.2	-8	-0.1	33%	-1	21	16	3.8	-5	-4.7
O=C1OCCN/C1=C\C(=O)c1ccc(Cl)cc1	9.7	-17	0.1	-13%	-21	-1	-2	2.4	-14	-2.3
O=C(CSc1nnc(-c2ccccn2)o1)Nc1cccc(Cl)c1	0.0	-8	-1.1	.	5	-3	8	-1.9	.	?
O=C(NCCc1ccccc1)/C(=C\c1ccc([N+](=O)[O-])cc1)NC(=O)c1ccco1	-5.6	2	1.4	-8%	-5	-2	2	-1.0	.	-23
CC(=O)N1CCc2c(sc(NC(=O)CCS(=O)(=O)c3ccc(C)cc3)c2C(N)=O)C1	33*	-7	1.6	2%	12	14	2	3.7	-13	-1.4
Cc1cc(C)c(NC(=S)NCC2CCN(C(C)c3ccccc3)C2)c(C)c1 (stereo unspecified)	4.8	-7	-0.5	0%	52	11	-2	-7.4	6	4.5
COc1ccccc1C(CNC(=O)c1ccc(OCc2c(C)noc2C)cc1)N1CCCC1 (stereo unspecified)	.	.	0.3	7%	.	8	12	1.3	-1	4.9
Cc1ccc2[nH]c3c(c2c1)CC/C(=C/c1ccccc1)C3=O	-1.1	-7	-0.7	-3%	17	.	.	.	4	.
CN(Cc1ccccc1)C(=O)COC(=O)c1cc(-c2ccc(Cl)s2)nc2ccccc12	3.5	-1	-0.3	-11%	-8	.	.	.	0	.
CC(=O)Nc1ccc(NC(=O)COC(=O)COc2ccc3ccccc3c2)cc1	.	.	-2.8	-5%	.	9	10	-1.6	1	-3.4
COC(=O)CC1C(=O)NCCN1C(=O)c1cc([N+](=O)[O-])ccc1Cl (stereo unspecified)	0.5	9	0.7	.	-3	2	8	1.5	.	-4.2
COc1ccc2[nH]c3c(c2c1)CCN1C(=O)N([C@@H](C)C(=O)NC2CCCC2)C(=O)[C@]31C	6.9	-2	-0.1	.	-10	.	.	.	-14	3.9
O=C(NC1CCCCC1)c1n[nH]c2c1CCCCC2	.	.	-13	.	.	1	-2	-2.8	5	0.4
O=c1c2cc(NC(=S)NCc3ccccn3)ccc2nc2n1CCCCC2	-4.7	10	0.2	.	-10	-22	-24	-0.9	-3	6.7
CC1=NN(C(C#N)c2ccc(F)cc2)C(c2ccccc2)C1 (stereo unspecified)	4.5	2	0.6	3%	-6	10	-1	-1.4	2	-1.6
O=C(Nc1ccc(Br)cc1)NC1CCCCCCC1	3.1	0	0.2	-3%	30	-29	-46	-2.2	14	0.2
COc1ccc(NS(=O)(=O)c2cccc(C(=O)N/N=C(\C)c3ccc(-n4ccnc4)cc3)c2)cc1	-1.8	4	0.1	4%	11	.	.	.	2	.
O=C(COC(=O)c1ccc2ccccc2n1)Nc1ccccc1Br	.	.	1.3	-2%	.	14	10	2.7	9	-0.8
O=C(CCC1CCCCC1)Nc1ccccc1O	?	-26	-12	0%	-4	.	.	.	-5	.
COc1ccc(-c2cc(-c3ccc(OC)cc3)[nH]n2)cc1	-1.3	-30	0.8	-2%	25	.	.	.	-14	.
CCOC(=O)c1cc2c(=O)n3ccccc3nc2n(CCCOC)c1=NC(=O)c1ccncc1	0.0	-1	-0.7	2%	22	8	0	1.1	7	0.0
O=C1NC(=O)/C(=C\c2ccc(Br)o2)S1	-6.6	87*	-0.7	.	69*	1	-2	-0.1	5	-1.8
C(=N\c1nc2ccccc2n1CCN1CCCCC1)/c1ccc2c(c1)OCO2	-1.4	4	0.5	-3%	47	.	.	.	-3	.
O=C(NC1CCCC1)c1nc2c(nnn2Cc2cccc(Cl)c2)c(=O)[nH]1	-0.7	-6	0.0	2%	5	.	.	.	-9	.
CCOC(=O)C1CCN(S(=O)(=O)CCNC(=O)c2ccc3c(c2)OCO3)CC1	-0.2	0	-1.0	-1%	-9	1	5	-0.1	.	-8.4
COc1ccc2[nH]c(C)c(CCN(Cc3cccs3)C(=S)Nc3ccccc3OC)c2c1	-174	4	0.2	16%	60*	19	12	5.8	23	-0.6
O=C(Nc1ccc(F)cc1)c1ccccc1	-1.0	-2	-3.8	4%	-24	3	9	-6.8	1	-0.6
CCOc1ccccc1NC(=S)N1CCN(c2ccccc2)CC1	4.9	-4	0.6	-8%	-1	-16	-10	-1.3	-1	2.1
Cc1ccc(-c2nnc(N)s2)cc1	7.4	-5	-1.0	.	-8	.	.	.	-2	.
O=c1c2cn(Cc3ccc(F)cc3)c3ccccc3c-2nn1Cc1ccc(F)cc1	-1.9	15	.	-6%	1	12	16	0.9	.	-6.9
